Compound activity (PubChem)
HSD17B inh: blocks hydroxysteroid 17-beta dehydrogenase activity | Q99714 | recombinant HSD17B10, NADH fluorescence kinetic; many of its hits are not listed in these tables | Potency, µM (top dose mostly 57.1 µM), inactives show top-dose activity change, negative = inhibition, usual class: inhibitors | 75,000 compounds, 7.6% hits; active = well fitted inhibition curve with a large enough effect; inconclusive = small, poorly fitted or top-dose-only effect; inactive = no such curve, though single readings can be large or run the other way;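 also: the protocol describes HADH2 (HSD17B10) and not the HSD17B4 of the title; nearly all actives have a fitted effect of over 70% in size; most hits overshoot -100% by far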
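Enzyme plus compound, 15 min room temperature; substrate mix added (NAD+ 1 mM, beta-hydroxybutyryl-CoA 90 uM final); plates read kinetically for NADH fluorescence. HADH2 was His-tagged, E. coli-derived, 20 nM.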
* hit, by the source's call; ? = inconclusive; & = joins results of further samples; [ ] = dose if it differs, or a comment. % is scaled to controls: 0 for no effect and ±100 for the full control effect; potency is read from the fitted curve at half-maximal effect. An excerpt. The share of hits here may be higher or lower than overall.

entry	Compound	HSD17B inh
1	CSc1ccc2c(c1)c(CCN)c(C)n2Cc1ccccc1Cl	1.8%[11.4 µM]
2	CC1(C)C(c2ccccc2)=NC(c2cccnc2)N1O (stereo not given)	2.0%
3	C/C(CCc1c[nH]c2ccccc12)=N\O	12.8%
4	CCN1C[C@]2(COC)CC[C@H](O)[C@@]34[C@@H]5C[C@H]6[C@@H](OC)[C@H]5[C@](O)(C[C@@H]6OC)[C@@](O)([C@@H](OC)[C@H]23)[C@@H]14	1.7%[25.6 µM]
5	Cc1noc(C)c1C(=O)N1CCC[C@@]2(CCN(CC(C)C)C2)C1	2.5%
6	COc1ccccc1N1C(=O)NC(=O)C2(Cc3cc(C)ccc3N(C)C2)C1=O (stereo not given)	4.2%
7	C=CC1CC=CCC1 (stereo not given)	2.6%
8	CN(C)CC#CCOCCOCCC#N	6.2%
9	Clc1ccccc1-c1cncnc1NCCc1cnc[nH]1	8.7%
10	Cc1nc2c(c(C)nn2-c2ccccc2)c(C)c1CCC(=O)N1CCC2(CC1)OCCO2	25.1µM*
11	COC(=O)C1(C)C=C2C(=C(C)C(=O)C2C)CN1 (stereo not given)	-2.6%
12	C=C1[C@@H]2C[C@@]3([C@H]1O)[C@H]1C[C@@H]4[C@@]5(C)CC[C@H](O)[C@]4([C@H]1N(CC)C5)[C@H]3C[C@H]2O	-0.4%[25.6 µM]
13	CCN1C[C@@]2(COC)CC[C@H](O)[C@@]34[C@@H]2C[C@@H]([C@@H]13)[C@]1(O)C[C@@H](OC)C2C[C@H]4[C@H]1[C@H]2OC(C)=O	-2.6%[25.6 µM]
14	CCn1c(C)c(C(=O)O)c2cc(OC)ccc21	-27.6%
15	N#CC1=C(N)Oc2n[nH]c(-c3cccs3)c2C1c1ccco1 (stereo not given)	12.6µM*

Among those listed so far, 2 contain an aryl methoxy group.
entry	Compound	HSD17B inh
6	COc1ccccc1N1C(=O)NC(=O)C2(Cc3cc(C)ccc3N(C)C2)C1=O (stereo not given)	4.2%
14	CCn1c(C)c(C(=O)O)c2cc(OC)ccc21	-27.6%

Some of the entries so far, field by field.
(14) CCn1c(C)c(C(=O)O)c2cc(OC)ccc21
  HSD17B inh: -27.6%
(8) CN(C)CC#CCOCCOCCC#N
  HSD17B inh: 6.2%
(4) CCN1C[C@]2(COC)CC[C@H](O)[C@@]34[C@@H]5C[C@H]6[C@@H](OC)[C@H]5[C@](O)(C[C@@H]6OC)[C@@](O)([C@@H](OC)[C@H]23)[C@@H]14
  HSD17B inh: 1.7%[25.6 µM]

(listing goes on)
entry	Compound	HSD17B inh
16	CC(=NCc1cccnc1)c1c(O)n(Cc2ccccc2)c(=O)[nH]c1=O	8.5%
17	C=C(C)c1cccc(C(C)(C)NC(=O)NC2CN3CCC2CC3)c1 (stereo not given)	0.6%
18	CCOC(=O)c1c(-c2ccc(OC)cc2)oc2ccc(OC(=O)N(C)C)cc12	25.1µM*
19	Cc1ccc(Cl)cc1N1CCN(CCN)CC1	-5.4%
20	COc1cccc(CN2CCCCC2c2cccnc2)c1 (stereo not given)	0.0%
21	CN(C)CCN=Cc1c(O)n(CCC2=CCCCC2)c(=O)[nH]c1=O	3.5%
22	CC1(C)CCC(C)(C)c2c1ccc(O)c2Cc1c(O)ccc2c1C(C)(C)CCC2(C)C	-19.2%[11.4 µM]
23	CCCCC/C=C\C/C=C\C/C=C\C/C=C\CCCC(=O)O	2µM*
24	O=c1[nH]c(=O)n(Cc2ccccc2)c(O)c1C=NCCCn1ccnc1	0.3%
25	CP(C)(=O)CCC(=O)O	2.9%
26	N[C@@H](Cc1c[nH]c2ccccc12)c1nnc(SCc2ccccc2F)o1	-6.9%
27	C=CC(=O)OC	-3.5%
28	CC1=C(C(=O)N2CCC3(CC2)OCCO3)C2(CCC(C)CC2)OC1=O (stereo not given)	0.5%
29	CC(C)c1nccn1Cc1ccc(Cl)cc1Cl	6.1%[11.4 µM]
30	CC(C)(C)c1cc(O)ccc1O	3.16µM*
31	C=CCOc1ccc(CC2C(=O)N(C)C(=O)N(C)C2=O)cc1	-6.3%
32	Cc1nc2c(-c3ccccc3)c(C)nn2c(C)c1CCC(=O)N1CCC2(CC1)OCCO2	3.4%
33	O=C(O)[C@H]1[C@H](C(=O)O)[C@H]2CC[C@@H]1O2	-9.6%
34	CCOC(=O)c1ccc(NC(=O)C2C3C=CC(O3)C2C(=O)O)cc1 (stereo not given)	10.5%
35	Cc1ccc(Cn2nnnc2CN2CCC(n3nnc4cc(C)ccc43)CC2)cc1	3.4%
36	CCCN1CCC[C@H](c2cccc(O)c2)C1	-6.1%&3.6%
37	O=C1CCc2c(ccc3ccccc23)O1	25.1µM*
38	C=C1C2CC[C@@]3(C)C(c4ccoc4)OC(=O)C[C@@]13OC1CC(=O)C(C)(C)C(C(OC(C)=O)C(=O)OC)[C@@]12C (stereo not given in full)	0.6%
39	c1cc2c(c(NC3=NCCN3)c1)CCCC2	5.1%[11.4 µM]
40	Cc1ccc(N)cc1N	-1.2%
41	CCCS(=O)(=O)N1CCC(C(=O)N2CCC3(CC2)OCCO3)CC1	1.2%
42	O=C(O)c1nonc1-c1nonc1C(=O)O	2.5%
43	CC#CP(=O)(OCC)C(O)(c1ccccc1)C(F)(F)F (stereo not given)	11.8%
44	COc1ccc(C[C@H]2NC[C@H](O)[C@@H]2OC(C)=O)cc1	20.0%
45	Oc1c(Cl)c(Cl)cc(Cl)c1Cl	-15.8%

Random excerpt: 3 entries already listed.
entry	Compound	HSD17B inh
35	Cc1ccc(Cn2nnnc2CN2CCC(n3nnc4cc(C)ccc43)CC2)cc1	3.4%
33	O=C(O)[C@H]1[C@H](C(=O)O)[C@H]2CC[C@@H]1O2	-9.6%
41	CCCS(=O)(=O)N1CCC(C(=O)N2CCC3(CC2)OCCO3)CC1	1.2%

Returning to the listing, repeating the five entries before the break.
entry	Compound	HSD17B inh
41	CCCS(=O)(=O)N1CCC(C(=O)N2CCC3(CC2)OCCO3)CC1	1.2%
42	O=C(O)c1nonc1-c1nonc1C(=O)O	2.5%
43	CC#CP(=O)(OCC)C(O)(c1ccccc1)C(F)(F)F (stereo not given)	11.8%
44	COc1ccc(C[C@H]2NC[C@H](O)[C@@H]2OC(C)=O)cc1	20.0%
45	Oc1c(Cl)c(Cl)cc(Cl)c1Cl	-15.8%
46	CCCCn1c(O)c(C(C)=Nc2cccc(C(=O)O)c2)c(=O)[nH]c1=O	?
47	O=C(CCCC1=NS(=O)(=O)c2ccccc2N1)N1CCC2(CC1)OCCO2	19.6%
48	O=C(O)Cc1cccnc1C(=O)O	-9.9%
49	Cc1nn(C)c(C)c1P(=S)(c1c(C)nn(C)c1C)N(C)C	0.6%
50	NNC(N)=S	1.1%
51	CCOC(=O)C1=C(N)OC2=C(C(=O)CC(C)(C)C2)C12C(=O)Nc1ccccc12 (stereo not given)	-3.3%
52	CC(C)Sc1nnc([C@@H](N)Cc2c[nH]c3ccccc23)o1	-1.5%
53	Cc1cc(N2CCOCC2)nc2ccc(NC(=O)CCC(=O)N3CCC4(CC3)OCCO4)cc12	25.1µM*
54	CCCCCl	2.9%
55	Cn1cccc1CNCCc1ccccc1F	-3.6%
56	C[C@@]12CC[C@H]3[C@@H](CC=C4C[C@H](OS(=O)(=O)O)CC[C@]43C)[C@H]1CCC2=O	-3.0%
57	Oc1ccc(Cl)cc1Cl	-2.1%
58	CCOC(=O)c1ccccc1N	31.6µM*
59	CC(=Nc1ccc2c(c1)CCC2)c1c(O)n(C)c(=O)n(C)c1=O	9.5%
60	Cn1c(O)c(C=NCCc2c[nH]c3ccccc23)c(=O)n(C)c1=O	-11.2%
61	CC(=O)O[C@@H]1CN2CCC1CC2	7.2%
62	CCCC(=O)c1c(O)[nH]c(=O)[nH]c1=O	10.5%
63	O=c1c2ccccc2nc(-c2cccs2)n1-c1cnccn1	0.7%
64	Clc1cnc(Oc2ccc(Oc3ncc(Cl)cc3Cl)cc2)c(Cl)c1	-2.2%
65	N[C@@H]1CCc2cc(O)c(O)cc2C1	3.98µM*
66	CCCCOC(=O)c1ccccc1C(=O)OCCCC	-6.4%
67	Cc1ccc(CN2CC3CC(C2)c2cccc(=O)n2C3)cc1 (stereo not given)	4.2%
68	CCCCc1ccc(C(=O)O)nc1	-0.1%
69	Cc1sc2ccccc2c1CC1=NCCN1	25.1µM*
70	CCOP(=S)(OCC)Oc1ccc([N+](=O)[O-])cc1	-8.4%&-6.2%
71	COc1cc2c(cc1O)[C@H]1Cc3ccc(OC)c(O)c3CN1CC2	-5.4%[25.6 µM]
72	CC[N+](=O)[O-]	0.3%
73	C=CC(=O)OCC(C)C	-3.0%
74	CCCN1[C@@H]2C[C@@H](O)CC[C@@H]2C[C@H]1C(=O)OC	3.2%
75	CCS(=O)(=O)Nc1cccc(C(=C2CCCCC2)c2cnc[nH]2)c1	-6.1%
76	CCOC(=O)C1CN(C)CCC1=O (stereo not given)	9.9%
77	O=C1c2ccccc2C2(c3ccc(Cl)cc3)NCCN12 (stereo not given)	6.4%
78	C=C(C)C#N	-5.6%
79	Cc1ccc2c(c1)C1CN(C)CCC1N2S(=O)(=O)c1ccccc1 (stereo not given)	1.8%
80	c1ccc(-c2cc3c(nc2-c2ccccc2)CCNC3)cc1	1.6%[11.4 µM]
81	ClCC(Cl)CCl	7.5%
82	Cc1cc(OC(=O)CCNC(=O)OC(C)(C)C)c2c3c(c(=O)oc2c1)CCC3	199.1%[activator]
83	O=C1/C(=C\c2ccccc2)C[C@@]2(O)[C@H]3Cc4ccc(O)c5c4[C@@]2(CCN3CC2CC2)[C@@H]1O5	-14.1%
84	COc1ccc(-c2cc(C(F)(F)F)n3nc(C(=O)N4CCC5(CC4)OCCO5)cc3n2)cc1OC	?
85	c1cncc(CNC2=NCCCCC2)c1	7.2%
86	O=C(CCCN1CCC(n2c(=O)[nH]c3ccccc32)CC1)c1ccc(F)cc1	-2.0%[25.6 µM]
87	CC(=NCc1ccc2c(c1)OCO2)c1c(O)[nH]c(=O)[nH]c1=O	6.1%
88	N#Cc1nn(-c2c(Cl)cc(C(F)(F)F)cc2Cl)c(N)c1S(=O)C(F)(F)F (stereo not given)	-0.9%
89	CN1C(=O)C(Cc2ccsc2)C(=O)N(C)C1=O	-8.4%
90	C[C@]12CCC3C(CC[C@]4(O)C[C@@H](O)CC[C@]34C=O)[C@@]1(O)CC[C@@H]2C1=CC(=O)OC1 (stereo not given in full)	-0.3%
91	NCCc1ccc(O)cc1	5.5%&3.7%&-2.6%
92	Cn1c(C(=O)N2CCC(C(=O)N3CCC4(CC3)OCCO4)CC2)cc2sccc21	4.5%
93	O=C(Oc1ccccc1)N1CCC2(CCCN(Cc3ccccc3)C2)CC1	-0.9%
